Yeast UUG start – alters start codon recognition fidelity in yeast. 350,000 tested, 0.13% active. AID 602363. S. cerevisiae UUG-firefly luciferase reporter, luminescence/redox ratio. activity score, % at 18.7 µM;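 active means replicate mean at a twofold rise or more, about +100% in these data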;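 further: firefly luciferase made from a UUG start codon reports start codon fidelity; reporter light over untreated wells divided by growth signal over untreated wells; some hits fall short of that in this replicate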
eIF4H inh – inhibitors of RNA binding by human eIF4H; Q15056; eIF4H fluorescence polarization binding assay; inhibition, % at 35 µM; 290,000 tested, 0.94% active; AID 2012;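 active means 50% or more with normal probe brightness, or confirmed in later tests; inconclusive means above 50% with abnormal brightness, or retests that disagree; inactive means below 50% or failed in later tests; about a fifth of its hits are not listed in these tables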;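 further: calls also rest on retests at 20 µM and on dose response follow-up; 0% = protein and probe with vehicle and 100% = probe without protein; strong numbers were not always called active; many hits fall short of the cut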
MT1-MMP act inh – inhibitors of human MT1-MMP activation | P50281 | HT1080 RFP-PRO-GFP cells, GFP/RFP ratio fluorescence, overnight; percent of plate control window, DMSO zero | GFP/RFP ratio change, % at 20 µM | 360,000 tested, 0.061% active | AID 651647;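 active means GFP/RFP ratio change of at least 30% with cell ATP level not reduced by more than half and red fluorescence within 50% of control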; further: strong numbers were not always called active
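Test system: HT1080 RFP-PRO-GFP cells; Benchmarks: DMSO and RFP-L50D-GFP cell wells; Timing: cells overnight before dosing, compound overnight, 37 °C, 5% CO2; Compound: one 20 µM compound dose with 1% DMSO; Read-out: GFP/RFP fluorescence ratio.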
CSC inhib – cancer stem cell inhibition | 300,000 tested, 1.1% active | inhibition, % at 7.5 µM | cancer stem cell-like cells viability, luminescence;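 active means mean at 75% or more and at least half the replicates too; inconclusive means mean and replicates disagree; tested in HMLE shEcad cells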;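 further: 0% = median of negative and 100% = median of positive control wells; the first replicate is given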
Rce1 inhib – inhibitors of yeast Ras-converting enzyme; Q03530; yeast membranes, quenched prenylated peptide cleavage fluorescence; calls only; 290,000 tested, 0.27% active; AID 2563;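 active means fall in fluorescence gain of 50% or more versus controls, with final raw signal at or below 3038400; inconclusive means same 50% fall but final raw signal above 3038400; inactive means fall in fluorescence gain under 50%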;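 further: plate controls were neutral control wells for no effect and wells lacking membranes for full effect; tested at 10 µM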
Target sequence (Q03530 whole entry, looked up): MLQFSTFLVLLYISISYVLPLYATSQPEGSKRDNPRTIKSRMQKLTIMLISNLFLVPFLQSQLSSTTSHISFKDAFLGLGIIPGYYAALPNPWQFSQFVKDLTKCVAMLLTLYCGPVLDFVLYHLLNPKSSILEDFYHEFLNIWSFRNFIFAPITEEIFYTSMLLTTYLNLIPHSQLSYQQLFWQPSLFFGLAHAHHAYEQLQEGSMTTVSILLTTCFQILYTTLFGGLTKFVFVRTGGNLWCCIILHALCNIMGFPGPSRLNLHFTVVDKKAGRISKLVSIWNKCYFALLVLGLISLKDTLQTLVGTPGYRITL
Env fusion inh – HIV envelope-mediated fusion inhibition; AID 651610; inhibition, % at 12.3 µM; 360,000 tested, 1.1% active; HeLa-JRFL Env/CEM21 cell fusion, luciferase;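 active means mean replicate inhibition score of at least 50 and every replicate individually at or above 50; inconclusive means only one of the two criteria met; inactive means mean below 50 and not all replicates reaching 50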;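 further: 0% = plate neutral controls and 100% = maraviroc near 300 nM; one replicate is shown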
PABP FP inh – PABP-poly(A) binding inhibition; 290,000 tested, 1% active; PABP-poly(A) RNA binding, fluorescence polarization; inhibition, % at 35 µM; AID 2014; P11940;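 active means 50% or more with normal probe brightness, or confirmed in later tests; inconclusive means above 50% with abnormal brightness, or retests that disagree; inactive means below 50% or failed in later tests; about a fifth of its hits are not listed in these tables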;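 further: calls also rest on retests at 20 µM and on dose response follow-up; controls were probe without protein and protein plus probe with vehicle; some compounds called inactive have numbers as strong as hits; many hits fall short of the cut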
eIF4H inh retest – further read-out of eIF4H inh, marked with its call; inhibition, %; compound at 20 µM; confirmation average;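 mean of two retest wells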
PABP FP inh retest – further read-out of PABP FP inh, marked with its call; inhibition, %; compound at 20 µM; confirmation repeats;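 mean of two retest wells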
MT1-MMP act inh RFP – further read-out of MT1-MMP act inh, marked with its call; RFP signal change, %; measured here: RFP expression control read;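 0 = vehicle wells; hits needed this value within 50% of zero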
Numbers without * were called inactive; i = inactive; u = inconclusive; x = no result given; & = joins results of further samples. A portion of the library; the hit share may differ from the screen's.

SMILES	Yeast UUG start	eIF4H inh	MT1-MMP act inh	MT1-MMP act inh RFP	CSC inhib	Rce1 inhib	Env fusion inh	PABP FP inh	others
O=C(CC(=O)Nc1ccc(Br)cc1)Nc1ccc(Br)cc1	-20	-2	2	3	4	i	15	2
O=C(NCc1cccnc1)NC(C(F)(F)F)C(F)(F)F	-12	2	1	0	-2	i	x	1
COC(=O)[C@@]1(Cc2ccccc2)C=C[C@@H](C)N1C(C)=O	-15	x	0	0	3	i	-12	x
Cc1cccc(NC(=O)CN(c2ccc(F)cc2)S(C)(=O)=O)c1	x	1	-3	-7	-19	i	-1	-6
O=C(N/N=C/c1cc([N+](=O)[O-])ccc1O)c1ccc(COc2ccc3c(c2)CCC3)o1	-29	58	-28	-26	101*	i	19	3	eIF4H inh retest=17;PABP FP inh retest=9
CCOC(=O)c1nc2ccccc2s1	-26	-10	0	2	-1	i	x	-7
Cc1ccc(NC(=O)C(c2ccccc2)N2CCN(C(=O)c3ccco3)CC2)cc1Cl (stereo not given)	-10	x	-3	1	-1	x	8	x
Cc1ccc(CNc2oc(-c3ccco3)nc2S(=O)(=O)c2ccccc2)cc1	-1	3	-2	-6	2	i	-24	-2
CCCCc1c(C)c2cc(C)ccc2[nH]c1=O	10	-11	4	-2	-8	i	-40	-6
Cc1cc(C)c2cc(C#N)c(N3CCCN(C(=S)NCCCN(C)C)CC3)nc2c1	-6	-7	-1	-9	31	i	10	16
Cc1ccn(CC(=O)NC2CCCN(Cc3ccc(CC(C)C)cc3)C2)n1 (stereo not given)	-1	-10	-1	-1	1	i	15	-4
CN(CC(=O)O)c1ccc(C(F)(F)F)cc1[N+](=O)[O-]	-7	1	-2	0	x	i	-4	6
CN1/C(=C\C=Nc2cc(S(=O)(=O)N3CCOCC3)ccc2N2CCOCC2)C(C)(C)c2ccccc21	x	-7	8	6	-10	x	-11	-4
CCCCNC(=S)N(CCN(C)C)Cc1cc2cc3c(cc2[nH]c1=O)OCCO3	9	2	-2	0	-7	i	-34	2
COc1ccccc1CNc1nc2nc(C)c(C)c(=O)n2[nH]1	-13	-6	1	0	-12	i	-2	8
COc1cc(C(O)c2nc(-c3cccc4cccnc34)cs2)ccc1F (stereo not given)	-13	x	0	-4	x	x	-11	x
CCOC(=O)CNC(=O)CSc1nnc(NC(=O)c2ccccc2Cl)s1	-15	-8	-4	4	-1	i	-3	-4
COc1cccc(C(N)=O)c1OC(=O)Cc1ccccc1F	-17	15	-5	0	-9	i	5	8
O=C(CNS(=O)(=O)c1cccs1)N1CCCC1	-2	-4	1	-1	-5	i	x	-8
O=C(CSc1ccc(-c2ccc(F)cc2)nn1)Nc1ccc2c(c1)OCCO2	x	-1	2	-2	-6	i	-7	-2
CCn1ccc2cc(OC)ccc2c1=S	-23	0	1	1	-12	i	i	18
O=C(Nc1ccc(Cl)cc1)Nc1ccccc1Sc1ncc([N+](=O)[O-])s1	-33	-2	-5	-4	84*	i	-106	-5
O=C(NCCCO)NC12CC3CC(CC(C3)C1)C2	-6	6	5	4	x	i	0	1
C=CCn1c(C)cc(C(=O)COC(=O)/C=C/c2ccc(OC)cc2)c1C	-13	-6	-4	0	-3	i	7	-14
CCN(CC)c1ccc(C(=O)N/N=C/c2ccc(OC)cc2OC)cc1	x	-14	1	4	14	i	-7	-14

Carrying on.
SMILES	Yeast UUG start	eIF4H inh	MT1-MMP act inh	MT1-MMP act inh RFP	CSC inhib	Rce1 inhib	Env fusion inh	PABP FP inh	others
O=C(c1ccc(F)cc1)C1CCN(C(=O)c2ccccc2F)CC1	-1	1	-3	-3	-12	i	7	12
COc1cc2c(=O)n(CCCC(=O)NCC3CCCO3)c(=O)n(CC(=O)c3ccc(F)cc3)c2cc1OC (stereo not given)	x	-11	-1	2	-20	i	1	2
COC(=O)Nc1ccc2c(c1)Nc1ccccc1CC2	1	-9	-3	-1	-18	i	-9	1
c1ccc(COc2cccc(-c3cc4nc(NCCN5CCOCC5)ccn4n3)c2)cc1	-17	x	4	-9	x	x	17	x
Cc1cnc(C(=O)OCc2nc3ccccc3o2)cn1	-14	x	-3	1	-18	x	-8	x
COc1cc(C(=O)OC(C)CN2CCOCC2)cc(OC)c1OC (stereo not given)	-12	-3&6	2&7	0&6	-1&-7	i	-10	23&3
COc1ccc(CNC(=O)C[C@H]2C(=O)N(c3ccccc3)C[C@@H]2Cc2ccccc2)cc1	-4	-21	-1	-3	7	i	x	1
OC(COc1ccc(Cl)cc1)CN1CCCCC1 (stereo not given)	-10	-8	7	5	-1	i	x	-4
COc1ccc(C(=O)Nc2ccc(S(=O)(=O)N3CCCC3)cc2)cc1	x	-2	-1	-2	-7	i	-3	-8
Cc1ccc(-c2ccc(CCC(=O)O)n2C(C)C)cc1	-3	3	-2	4	-20	i	-48	10
Cc1ccc(C(=O)CCS(=O)(=O)c2ccc(Br)cc2)cc1	-16	-3	-2	-1	13	i	-7	1
COc1ccc(OCc2nc3c4c(ncn3n2)-c2ccccc2CC42CCCC2)cc1	x	2	2	-4	x	i	36	24
Cc1ccc(NC(=O)C2CCCNC2=O)nc1 (stereo not given)	-9	-11	3	7	-2	x	-30	-4
O=C(CN1C(=O)C(=O)N(Cc2ccco2)C1=O)Nc1ccc(F)c(F)c1F	-21	x	x	x	-9	x	1	x
c1ccc(-c2ccc(-c3nc(-c4ccccn4)no3)cc2)cc1	-90	-5	4	-12	-10	i	x	-5
O=C(CSc1ccc(Cl)cc1)N1CCN(c2ccc(Cl)cc2[N+](=O)[O-])CC1	x	60	3	-6	54	i	x	46	eIF4H inh retest=26;PABP FP inh retest=33
O=C(c1cnc(N2CCN(c3ncccn3)CC2)c2ccccc12)N1CCN(c2ncccn2)CC1	-10	-8	3	-7	9	i	5	3
CN(C)c1nc(OCCNC(=O)COc2ccccc2Cl)nc(N(C)C)n1	-7	-1	5	-1	-14	i	-34	-10
Cc1ccc(C)n1-c1ccc(C(=O)/C=C/N(C)C)cc1	x	6	-9	-1	-2	i	-21	-7
Cc1ccc(CCNC(=O)c2sc3nc4n(c(=O)c3c2C)CCC4)cc1	-5	-8	0	1	-14	i	11	0
O=C1C(Cc2ccc(O)cc2)NC(=S)N1c1ccccc1 (stereo not given)	-16	-8	-3	4	-7	i	13	-9
COc1ccc(CC(=O)N2CCCC(C)C2)cc1 (stereo not given)	-7	2	-2	2	-9	i	-26	-3
CCC1(C)Cc2ccccc2-c2c1c(=O)n(-c1ccc(C)cc1)c1nnnn21 (stereo not given)	-2	0	-9	2	26	i	x	-9
CCC(=O)NCCc1nc2cc(NC(=O)c3ccc(F)cc3)ccc2n1C	-16	-6	2	2	-3	i	-22	2
CCOc1cc(/C=C2\C(=O)N(c3nc(-c4ccc(Br)cc4)cs3)N=C2c2ccccc2)ccc1O	-22	84*	63*	37*	99*	i	x	22	eIF4H inh retest=82*;PABP FP inh retest=41

Continued:
SMILES	Yeast UUG start	eIF4H inh	MT1-MMP act inh	MT1-MMP act inh RFP	CSC inhib	Rce1 inhib	Env fusion inh	PABP FP inh	others
Cc1ccc(NC(=O)C2CCN(S(=O)(=O)c3cccc4cccnc34)CC2)nc1	-13	1	-1	-1	-11	i	-34	5
COc1ccc2cc(CN(CC3CCCO3)S(=O)(=O)c3ccc(C(C)=O)cc3)c(=O)[nH]c2c1 (stereo not given)	x	-11	6	-3	-5	i	2	3
O=C(/C=C/c1ccc(S(=O)(=O)N2CCOCC2)cc1)NCc1ccccc1Cl	x	6	3	-4	51	i	-1	5
O=C(CSc1nc2c(c(=O)n1-c1ccc(Br)cc1)SCC2)NCC1CCCO1 (stereo not given)	-27	-3	6	4	-9	x	x	5
Cc1ccc2[nH]cc(CCNC(=O)c3ccc([N+](=O)[O-])cc3)c2c1	x	-11	2	1	0	i	-4	2
Cc1ccc(OCC(=O)Nc2ccc(NC(=O)c3ccccc3)c(C)c2)cc1	12	-6	5	7	14	i	4	-1
CCOc1ccc(NS(=O)(=O)c2cc(OC)ccc2OC)cc1	-45	0	4	-5	-15	i	x	4
CC(C)C(OC(=O)c1cc2occc2n1C)C(=O)NCc1ccc2c(c1)OCO2 (stereo not given)	-12	-2	1	2	8	i	x	-4
CCN(CC)C(=O)c1ccc(COc2ccccc2Cl)o1	x	1	4	-4	-6	i	-4	0
CC(=O)Nc1ccc2nc(-c3cccs3)[nH]c2c1	-20	0	8	5	-20	u	x	6
O=C(CSc1nnc(CNC(=O)c2ccco2)o1)Nc1ccccc1F	-10	2	-1	1	-2	i	-2	7
COc1cccc(-c2cc3nc(-c4ccccc4)cc(N4CCCC(O)C4)n3n2)c1 (stereo not given)	x	-8	3	-6	90*	i	-43	-2
O=C(OCCCCOC(=O)c1ccccc1)c1ccccc1	-2	-9	-1	0	0	i	-1	-4
CCN(CC(=O)NCc1ccc(Cl)cc1)C(=O)Cc1ccc(OC)cc1	-10	3	1	-5	x	i	2	-8
Cn1ccc2c(/C=C/c3ccc(F)cc3)cc3c(c21)C1CCC3C1 (stereo not given)	-17	x	0	4	x	x	-7	x
Cn1nccc1C(=O)N1CCOCC1	8	3	-8	2	4	i	x	4
c1cc2c(cnc3cscc32)s1	x	-4	1	5	-5	i	3	7
O=C(Nc1ccc(F)cc1)c1cc2ccccc2o1	6	-4	2	-3	1	i	-60	-3
COc1ccc2oc(C(=O)Nc3ccccc3N3CCOCC3)c(C)c2c1	-26	x	3	-2	4	i	43	x
CCNC(=O)C1CCCN(C(=O)c2ccccc2F)CC1 (stereo not given)	-16	x	0	1	x	x	-7	x
COc1ccc(-c2noc(CNS(=O)(=O)c3ccc(NC(C)=O)cc3)n2)cc1	-10	-1	7	3	-3	i	1	12
CC(C)CN1C(=O)C(=O)N(CC(=O)Nc2cc(Cl)ccc2Oc2ccccc2)C1=O	x	-14	-1	-4	x	i	1	12
O=C(NCc1ccncc1)c1ccc(-c2ccc(F)c(F)c2)c2ccoc12	-5	x	10	-30	x	x	20	x
O=C(Nc1ccccc1N1CCOCC1)c1csc2c1CCCC2	18	-5	-2	-6	x	i	16	4
Cc1cccc(NCc2ccccc2)c1	-24	-6	-4	-1	-12	i	-15	-7

The listing continues:
SMILES	Yeast UUG start	eIF4H inh	MT1-MMP act inh	MT1-MMP act inh RFP	CSC inhib	Rce1 inhib	Env fusion inh	PABP FP inh	others
COc1ccc(-c2nc3nc(C)c(Cc4ccccc4)c(=O)n3[nH]2)cc1	-12	-10	3	-3	13	i	-67	5
C=C(C)C(=O)N1CCN(C(=O)C(=C)C)c2ccccc21	3	x	1	-1	x	x	-12	x
COc1ccccc1N1CCN(/N=C/c2ccc(O)cc2O)CC1	-11	1	8	0	-10	i	-15	-2
CC(=O)Nc1cccc2c1C(=O)N(c1ccc(C)cc1)C2=O	-24	10	-2	3	2	i	-13	-1
Cc1ccc(S(=O)(=O)NCCC(=O)N2CCN(Cc3ccccc3)CC2)cc1	-6	-1	-2	-2	19	i	x	-4
CC1(C(=O)NNC(=O)c2cccc([N+](=O)[O-])c2)CC1(Br)Br (stereo not given)	-25	-5	-2	5	-8	i	-14	3

Three compounds picked at random from those above, as already listed:
SMILES	Yeast UUG start	eIF4H inh	MT1-MMP act inh	MT1-MMP act inh RFP	CSC inhib	Rce1 inhib	Env fusion inh	PABP FP inh	others
CC(=O)Nc1cccc2c1C(=O)N(c1ccc(C)cc1)C2=O	-24	10	-2	3	2	i	-13	-1
COc1ccccc1N1CCN(/N=C/c2ccc(O)cc2O)CC1	-11	1	8	0	-10	i	-15	-2
COc1ccc(-c2nc3nc(C)c(Cc4ccccc4)c(=O)n3[nH]2)cc1	-12	-10	3	-3	13	i	-67	5
